MITF inh: inhibitors of MITF; 37,000 tested, 0.28% active; AID 2240; inhibition, % (no concentration beside the values); TRPM1 promoter luciferase, luminescence, 24 h;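 active = most replicates at 85% or more, or half of them and the mean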;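 note: human melanocyte line stably carrying TRPM1 promoter luciferase reporter; 0% = vehicle wells and 100% = a positive control; the first replicate is given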
YB-1 expression: YB-1 expression inhibition | delta delta Cp (YB-1 minus CDIP) (no concentration beside the values) | 30,000 tested, 0.37% active | U2OS, qRT-PCR YB-1 vs CDIP delta delta Cp, 16 h; stronger effect = higher value; zero = DMSO, each unit about twofold;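 active = delta delta Cp rounded down to an integer at or above 3, about 3 SD of DMSO wells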;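 note: higher means less YB-1 transcript or more CDIP transcript relative to DMSO; stock transfer was 100 nL into about 100 µL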
PD-1 reverse act: reversal of PD-1 mediated T-cell inhibition; primary human CD4 T cells, PD-L1 beads, CellTiter-Glo 96 h; activation, % (concentration not given with the values); 29,000 tested, under 10 active;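 active = replicate mean of 50% or more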;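 note: 0% = median vehicle wells and 100% = positive control; 100 nL library stock added to about 50 µL; numbers are from one replicate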
Shh pathway inh: Sonic Hedgehog pathway inhibition; Shh-LIGHT2 Gli-luciferase reporter, 30 h; inhibition, % (no concentration beside the values); 22,000 tested, 2.1% active; AID 2313;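 active = replicate mean of 65% or more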;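 note: pathway switched on by Shh-conditioned medium diluted 1 in 25 in low serum; 100 nL library stock added to about 40 µL; 0% = median of neutral wells and 100% = positive control level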
* hit, by the source's call; / = not tested or not shown. Not all compounds are listed. The share of hits here may be higher or lower than overall.

SMILES | MITF inh | YB-1 expression | PD-1 reverse act | Shh pathway inh
CC1C/C=C/C2C3OC3(C)C(C)C3C(Cc4ccccc4)NC(=O)C23OC(=O)O/C=C/C(C)(O)C1=O (stereo unspecified) | 40.9 | 0.0819 | -26.3 | 44.1
CCC1CC2CC3(C(=O)OC)c4[nH]c5ccc(OC)cc5c4CCN(C2=O)C13 (stereo unspecified) | 9.1 | -0.295 | 4.6 | 0.5
COc1cc2c(cc1-c1cc3cc4ccoc4cc3oc1=O)OCO2 | 21.3 | -0.215 | / | -7.6
CCOC(=O)c1cc2c(cn1)[nH]c1ccccc12 | -4.3 | -0.4 | / | -119.1
CCOCN(C(=O)CCl)c1c(C)cccc1CC | 99.1* | -0.179 | / | 79.9*
COc1cc(C2c3cc4c(cc3CC3COC(=O)C32)OCO4)cc(OC)c1OC (stereo unspecified) | 47.9 | -0.799 | -9.4 | 80.0*
COC(=O)C1CC(=O)C[C@H]2[C@]3(C)C[C@@H](c4ccoc4)OC(=O)[C@H]3CC[C@@]12C (stereo partly specified) | -19.8 | -0.465 | 3.0 | 0.0
O=c1c2ccccc2nc(CSc2ncnc3ccccc23)n1-c1ccccc1F | 70.7 | / | -8.6 | /
C/C=C/[C@@H]1[C@H]2C[C@@H](C)CC[C@@H]2C(C)=C[C@H]1C(=O)c1c(O)c(-c2ccc(O)cc2)c[nH]c1=O | 20.0 | 0.971 | -1.3 | -9.1
CNc1ccc2oc(C[C@@H]3OC4(CC[C@@H]3C)O[C@H](C(C)C(=O)c3ccc[nH]3)[C@H](C)C[C@H]4C)nc2c1C(=O)O (stereo partly specified) | 105.0* | -0.00083 | / | 104.2*
C=C1CC[C@]2(O)[C@]3(C)C[C@@]4(O)O[C@@]2([C@@H]1O)[C@]1(O)[C@@]3(O)[C@H]([C@H](OO)c2ccc[nH]2)[C@](C)(C(C)C)[C@@]14C | -2.5 | 1.42 | 1.6 | 13.3
CC[C@H]1C2C[C@H]3[C@@H]4N(C)c5ccccc5C45C[C@H](C2[C@H]5O)N3[C@@H]1O (stereo partly specified) | 6.0 | -0.248 | / | 36.2
COC(=O)c1cc2c(cn1)[nH]c1ccccc12 | 0.5 | -0.603 | / | -48.0
CC1(C)C(C(=O)NN2C(=O)c3ccccc3C2=O)C1(C)C | 6.4 | -0.215 | -0.5 | -8.1
CCCN(CCC)C1CCc2cccc(O)c2C1 (stereo unspecified) | -5.3 | 0.187 | 1.9 | 29.5
Oc1ccc2c3c1O[C@H]1[C@@H](O)CC[C@@]4(O)[C@@H](C2)N(CC2CCC2)CC[C@]314 | -11.6 | 0.654 | 3.5 | 25.3
C[C@@H]1Cc2c(Cl)cc(C(=O)N[C@@H](Cc3ccccc3)C(=O)O)c(O)c2C(=O)O1 | / | 1 | / | 78.1*
C/C=C1/C[N+]2(C)CCC34C(=C(C=O)[C@H]1C[C@@H]32)Nc1ccccc14 (stereo partly specified) | -0.1 | -0.633 | / | 14.0
COc1ccc(C(=O)O)cc1OC | -3.5 | 0.203 | / | -43.2

An excerpt from above in order of heavy-atom count, rising:
SMILES | MITF inh | YB-1 expression | PD-1 reverse act | Shh pathway inh
COc1ccc(C(=O)O)cc1OC | -3.5 | 0.203 | / | -43.2
COC(=O)c1cc2c(cn1)[nH]c1ccccc12 | 0.5 | -0.603 | / | -48.0
CCCN(CCC)C1CCc2cccc(O)c2C1 (stereo unspecified) | -5.3 | 0.187 | 1.9 | 29.5
CC1(C)C(C(=O)NN2C(=O)c3ccccc3C2=O)C1(C)C | 6.4 | -0.215 | -0.5 | -8.1
Oc1ccc2c3c1O[C@H]1[C@@H](O)CC[C@@]4(O)[C@@H](C2)N(CC2CCC2)CC[C@]314 | -11.6 | 0.654 | 3.5 | 25.3
C[C@@H]1Cc2c(Cl)cc(C(=O)N[C@@H](Cc3ccccc3)C(=O)O)c(O)c2C(=O)O1 | / | 1 | / | 78.1*
O=c1c2ccccc2nc(CSc2ncnc3ccccc23)n1-c1ccccc1F | 70.7 | / | -8.6 | /
C/C=C/[C@@H]1[C@H]2C[C@@H](C)CC[C@@H]2C(C)=C[C@H]1C(=O)c1c(O)c(-c2ccc(O)cc2)c[nH]c1=O | 20.0 | 0.971 | -1.3 | -9.1
C=C1CC[C@]2(O)[C@]3(C)C[C@@]4(O)O[C@@]2([C@@H]1O)[C@]1(O)[C@@]3(O)[C@H]([C@H](OO)c2ccc[nH]2)[C@](C)(C(C)C)[C@@]14C | -2.5 | 1.42 | 1.6 | 13.3
CNc1ccc2oc(C[C@@H]3OC4(CC[C@@H]3C)O[C@H](C(C)C(=O)c3ccc[nH]3)[C@H](C)C[C@H]4C)nc2c1C(=O)O (stereo partly specified) | 105.0* | -0.00083 | / | 104.2*
